Vaccinia mCherry: qHTS for Stage-Specific Inhibitors of Vaccinia Orthopoxvirus: mCherry Reporter Primary qHTS; Vaccinia virus mCherry reporter infection, fluorescence; about a quarter of the inactives have no number; Potency, µM (doses to about 36.5 µM), without a hit: at the highest dose activity change, negative = inhibition, most hits filed as inhibitors; hit rate 0.63% among 310,000; active = well fitted inhibition curve with a large enough effect; inconclusive = small, poorly fitted or top-dose-only effect; inactive = no such curve, though single readings can be large or run the other way; tested in A549 cells; note: nearly all actives have a fitted effect of over 35% in size; inactives centre near -10
Vaccinia Venus: qHTS for Stage-Specific Inhibitors of Vaccinia Orthopoxvirus: Venus Reporter Primary qHTS; Potency, µM (titrated, usually from 36.5 µM), without a hit: top-dose activity change, negative = inhibition, hits mostly inhibitors; hit rate 0.46% among 330,000; Vaccinia virus Venus reporter expression, fluorescence; AID 720580, 2013; active means well fitted inhibition curve with a large enough effect; inconclusive means small, poorly fitted or top-dose-only effect; inactive means no such curve, though single readings can be large or run the other way; tested in A549 cells; note: nearly all actives have a fitted effect of over 30% in size; inactives centre near -10
* hit, by the source's call; i = inactive; ? = inconclusive; . = not tested or not shown; & = joins results of further samples; [ ] = another dose, or the depositor's remark. % is set by controls: 0 for no effect and ±100 for the full control effect; potency is the fitted concentration of half-maximal effect.

no.	Compound	Vaccinia Venus	Vaccinia mCherry
1	NC(=NCCc1c[nH]c2ccccc12)NC(=O)c1ccc(F)cc1	-9%[7.34 µM]	-13%[7.34 µM]
2	O=C(Nc1ccc(Cl)cc1N1CCOCC1)C1CCCCC1	-15%	-13%
3	COC(=O)c1cc2sccc2n1Cc1ccccc1	0%	-7%
4	N#C/C(=C\c1ccc(-c2ccc(Cl)c(C(=O)O)c2)o1)c1nc2ccccc2[nH]1	8%	-8%
5	Cc1ccc(S(=O)(=O)NN=Cc2cc(Cl)ccc2O)cc1	-4%	-14%
6	CCc1ccccc1-n1c(SCC(=O)Nc2ccc(C)cc2)nc2n[nH]c(C)c2c1=N	?	?
7	Cc1cccc(-n2c(=O)c3c(c4cc(C)ccc4n3C)n(CC(=O)Nc3ccc(C)cc3C)c2=O)c1	-2%	-6%
8	Cc1nn(C)c(C)c1S(=O)(=O)N1CCC(CO)(Cc2ccc(Cl)cc2)CC1	-15%	-5%
9	O=C(NC1CCCCC1)C1c2ccccc2OCC(=O)N1CCCN1CCOCC1 (stereo not drawn)	4%	3%
10	Cn1c(CN2CCCC2)nc2cc(NS(=O)(=O)c3ccc(Cl)cc3)ccc21	-19%	.
11	CCCc1nc(N)nc2c1C(=O)CC(C)(C)C2	-9%	.
12	CCOC(=O)C1(C)CCN1C(=O)COc1ccccc1 (stereo not drawn)	2%	i
13	COC(=O)c1cc(=O)n(CCc2ccc(OC)c(OC)c2)c(=Nc2ccc(F)c(Cl)c2)s1	-20%	-3%
14	CON(C)C(=O)CCN(C(=O)OC(C)(C)C)c1ccccc1	-5%	i
15	CCCCN(C)C(=O)c1sc(=O)n(Cc2cc(Cl)ccc2OC)c1C	-2%	3%
16	O=C(COc1ccc([N+](=O)[O-])cc1)N/N=C/c1cc([N+](=O)[O-])ccc1N1CCOCC1	-23%	-11%
17	CCCNC(=O)C1CCC(Cn2c(=O)c3sccc3n(Cc3cccc(OC)c3)c2=O)CC1 (stereo not drawn)	-15%	-19%
18	Brc1cccc(-c2nnc3n2CCCCC3)c1	-7%	-7%
19	COc1cccc(NC(=O)N(Cc2cn(C)c3ccccc23)C2CCCCC2)c1	-22%	-21%
20	Oc1ccc(N=Nc2ccccc2C(F)(F)F)c2cccnc12	?	?
21	COc1ccc(-c2nc3c(s2)CCc2onc(-c4ccc(OC)cc4)c2-3)cc1	-26%	?
22	Cc1ccc(/C(O)=C2\C(=O)C(=O)N(CC(C)O)C2c2ccc(N(C)C)cc2)cc1 (stereo not drawn)	-8%	.
23	O=C(c1cccc(C(F)(F)F)c1)N1CCC(=O)N(C(CO)Cc2ccccc2)CC1 (stereo not drawn)	-9%	i
24	CCC(=O)N1CCN(c2ccc(NC(=O)c3ccco3)cc2Cl)CC1	-2%	-8%
25	O=C(CSc1nnc(CNC(=O)c2c(F)cccc2F)o1)c1ccccc1	-12%	-1%

In a second layout: entries from further up.
17) CCCNC(=O)C1CCC(Cn2c(=O)c3sccc3n(Cc3cccc(OC)c3)c2=O)CC1 (stereo not drawn)
22) Cc1ccc(/C(O)=C2\C(=O)C(=O)N(CC(C)O)C2c2ccc(N(C)C)cc2)cc1 (stereo not drawn)
Compound	17	22
Vaccinia Venus	-15%	-8%
Vaccinia mCherry	-19%	.

Further compounds.
no.	Compound	Vaccinia Venus	Vaccinia mCherry
26	Cc1ccc(NC(=O)CSc2nc3ncccc3[nH]2)cc1F	-2%	0%
27	Cc1cccc(CSc2ccc(-c3ccco3)nn2)c1	-7%	-22%
28	CCn1c(/C=C/c2cc[n+](C)cc2)nc2ccccc21	-14%	-23%
29	Cc1ccc(C(=O)C2=C(O)C(=O)N(Cc3cccnc3)C2c2ccc(Cl)cc2)o1 (stereo not drawn)	-19%	-23%
30	CCOC(=O)C1=C(C)N=C2c3ccccc3C(=O)C2C1c1ccc(Cl)cc1 (stereo not drawn)	-22%	-20%
31	O=c1[nH]c(=O)n(C2CC(O)C(CO)O2)cc1C(F)(F)F (stereo not drawn)	-26%	2µM*
32	CCn1c2ccccc2c2nnc(SCCN3CCCCC3)nc21	-11%	-11%
33	Fc1cccc(Cl)c1CSc1ccc2nnc(-c3ccccn3)n2n1	-9%	-4%
34	COc1ccc(-c2noc(-c3ccc(Br)o3)n2)cc1	-4%	-6%
35	CCOC(CCNC(=O)c1cn(-c2cccc(C)n2)cn1)OCC	-18%	.
36	COC(=O)c1ccccc1NC(=O)c1cccc(NC(=O)C(C)C)c1	-24%	i
37	COc1ccc(-c2nc(CN3CCN(C(=O)c4ccco4)CC3)c(C)o2)c(F)c1	-18%	-5%
38	Cc1cccc(-c2noc(CN(C(=O)c3ccccc3Cl)C(C)C)n2)c1	-9%	-9%
39	O=C(Cn1nnc(-c2cccc(C(F)(F)F)c2)n1)NC(=O)NCc1ccco1	-7%	.
40	O=C(NCCSc1c[nH]c2ccccc12)c1ccc2c(c1)OCO2	-13%	-9%
41	O=C(N/C(=C\c1ccc(-c2ccccc2)o1)C(=O)N1CCOCC1)c1ccccc1	?	?
42	O=C(O)c1cc(/C=C/c2ccc(N3CCOCC3)c([N+](=O)[O-])c2)nc2ccccc12	-6%[7.34 µM]	-11%[7.34 µM]
43	CCOc1ccc(C(C)=O)cc1CN1c2ccc(S(N)(=O)=O)cc2CC1C (stereo not drawn)	-8%	i
44	Cc1ccc(CN(C)CC(=O)NC(C)c2ccccc2)cc1 (stereo not drawn)	4%	?
45	Cc1ccn2c(-c3n[nH]c(=S)n3Cc3ccccc3)c(C)nc2c1	-10%	-12%
46	CN(C)c1cc(-c2ccccc2)nc(N)n1	-13%	-22%
47	Cc1cc(N2CCN(C)CC2)nc2ccccc12	-20%	-15%
48	Cc1ccc(CNC(=O)[C@H](C)NC(=O)C2CCN(C(=O)[C@@H]3CCCN3C(=O)OC(C)(C)C)CC2)cc1	0%	-10%
49	O=C1CN(C(=O)C2CCC(=O)N(CCc3ccc(Cl)cc3)C2)CCN1 (stereo not drawn)	1%	i
50	Nc1nc(SCC(=O)Nc2cccc(C(F)(F)F)c2)n[nH]1	0%	i

Look-ups from the list:
no. 33 @ Vaccinia mCherry: -4%
no. 34 @ Vaccinia Venus: -4%
no. 31 @ Vaccinia mCherry: 2µM*
no. 48 @ Vaccinia mCherry: -10%

More compounds:
no.	Compound	Vaccinia Venus	Vaccinia mCherry
51	CCc1ccc(C(C)NC(=O)c2ccncc2)cc1 (stereo not drawn)	-11%	-1%
52	Cc1oc2ncn(CC(C)C)c(=O)c2c1C(=O)Nc1cccc(C(F)(F)F)c1	-7%	-3%
53	COC(=O)c1c(OCc2cccnc2)cc(=O)n2c1CCN(C(=O)c1ccc(OC)c(F)c1)CC2	-11%	i
54	COc1ccc(S(=O)(=O)N2CCC(NC(=O)Nc3ccc(C)cc3)CC2)cc1	-26%	-20%
55	O=C(CSCc1cnn(-c2ccccc2)c1-n1cccc1)NCc1ccc(Cl)cc1	-8%	-9%
56	O=C(CCC1CCCN(C(=O)C2(c3ccccc3)CC2)C1)N1CCN(c2ccccn2)CC1 (stereo not drawn)	-20%	-32%
57	O=C(c1cccc(F)c1)N1CCN(C(=O)c2cc(-c3ccc(Cl)cc3Cl)on2)CC1	-14%	-19%
58	COc1cc(C)c(Br)cc1S(=O)(=O)N1CCCC1	-27%	.
59	Cc1nc2ccc3nc(NC(=O)c4ccc(S(=O)(=O)N5CCOCC5)cc4)sc3c2s1	-4%	-8%
60	C[C@@H]1O[C@@H](O[C@H]2C[C@@H](O)[C@]3(CO)[C@H]4[C@H](O)C[C@]5(C)[C@@H](C6=CC(=O)OC6)CC[C@]5(O)[C@@H]4CC[C@]3(O)C2)[C@H](O)[C@H](O)[C@H]1O	0.63µM*	0.5µM*
61	Cc1cc(Br)c(S(=O)(=O)n2nnc3ccccc32)cc1C	-6%	-9%
62	COc1cccc(-c2cc(C(=O)NCc3cccs3)no2)c1	-11%	0%
63	COc1cc(C(=O)OCC(=O)Nc2cc(C)on2)c([N+](=O)[O-])cc1OC	-9%	4%
64	CSc1ncccc1C(=O)Nc1ccc2c(c1)OCO2	-7%	-23%
65	COc1ccc(NC(=O)C(c2ccc(OC)cc2)N(C)C(=O)CC2NC(=O)NC2=O)cc1 (stereo not drawn)	-10%	-1%
66	Nc1c(-c2ccccc2)cnn1C1CCS(=O)(=O)C1 (stereo not drawn)	16%	.
67	O=C(Cn1ncc2c(=O)oc3ccccc3c21)NCC1COc2ccccc2O1 (stereo not drawn)	-7%	-1%
68	CN(C)c1ccc(/C=N\Nc2ccc([N+](=O)[O-])cc2[N+](=O)[O-])cc1Cl	-16%	-14%
69	CCOc1ccc(NC(=O)CN2CCCN(Cc3cc(C)ccc3C)S2(=O)=O)cc1	-15%	-19%
70	COc1ccc(CSc2nc(C)cc(=O)[nH]2)cc1	-8%	.
71	COC(=O)c1cc(C(=O)OC)cc(S(=O)(=O)Nc2ccc(Cl)c(N)c2)c1	-14%	.
72	CC(C)(C)c1ccc(S(=O)(=O)NC(=O)C2(C)CCN2C(=O)CC2CCCCC2)cc1 (stereo not drawn)	-21%	8%
73	Cc1cc(S(=O)(=O)N2CCN(c3ccc(F)cc3)CC2)ccc1-n1cnnn1	-9%	-21%
74	CN(C(=O)CSc1ncccc1C(=O)O)c1ccccc1	-8%	-10%
75	COc1ccccc1Cn1c(=S)[nH]c2cc(C(=O)N3CC(C)CC(C)C3)ccc2c1=O (stereo not drawn)	-14%	i

Four entries from above, with values under each structure:
Every second line gives: Vaccinia Venus | Vaccinia mCherry
58	COc1cc(C)c(Br)cc1S(=O)(=O)N1CCCC1
  -27% | .
59	Cc1nc2ccc3nc(NC(=O)c4ccc(S(=O)(=O)N5CCOCC5)cc4)sc3c2s1
  -4% | -8%
60	C[C@@H]1O[C@@H](O[C@H]2C[C@@H](O)[C@]3(CO)[C@H]4[C@H](O)C[C@]5(C)[C@@H](C6=CC(=O)OC6)CC[C@]5(O)[C@@H]4CC[C@]3(O)C2)[C@H](O)[C@H](O)[C@H]1O
  0.63µM* | 0.5µM*
61	Cc1cc(Br)c(S(=O)(=O)n2nnc3ccccc32)cc1C
  -6% | -9%

Additional results
no.	Compound	Vaccinia Venus	Vaccinia mCherry
76	CCOC(=O)C1CCN(C(=O)COc2ccc(S(=O)(=O)NC(C)(C)C)cc2)CC1	-3%	i
77	CC[n+]1c(C)sc2c3ccsc3ccc21	0%	i
78	Cn1c(=O)c(=O)n(C)c2cc(S(=O)(=O)N3CCN(c4ccc(F)cc4)CC3)ccc21	-20%&-14%	-12%&-18%
79	CN(CC(=O)N1CCN(c2cccc(Cl)c2)CC1)S(=O)(=O)c1cccs1	-14%	-6%
80	O=C1CCCc2sccc2N1	2%	?
81	CCOC(=O)CC(NC(=O)c1cc2cc(Br)ccc2oc1=O)c1cccc([N+](=O)[O-])c1 (stereo not drawn)	-12%	-15%
82	Cc1ccc(NS(=O)(=O)c2ccc(C(=O)N3CCCCCC3)cc2)cc1	-21%	-16%
83	O=C(CSc1nnc(Cc2cc(=O)[nH]c(=O)[nH]2)n1-c1ccccc1)N1CCCCC1	-8%	-9%
84	O=C(CCCOC(=O)c1ccc(O)cc1O)c1ccc(F)cc1	-24%	-9%
85	CC(OC(=O)c1ccccc1C(=O)O)c1ccccc1 (stereo not drawn)	-5%	i
86	CC1(C(=O)NS(=O)(=O)c2ccc(Br)cc2)CCN1C(=O)CCc1cccs1 (stereo not drawn)	-8%	20%
87	COc1ccc(C(=O)N/C(=C\c2ccccc2)C(=O)N2CCOCC2)cc1	-13%	-1%
88	CCc1ccccc1NS(=O)(=O)c1cc2c3c(c1)CCN3C(=O)CC2	-16%	i
89	CC(C)Oc1cccc(OCCN2C(=O)c3ccccc3C2=O)c1	-7%	-12%
90	CC(=O)Nc1cccc(NC(=O)CSc2nccn2Cc2ccc3c(c2)OCO3)c1	-16%	-1%
91	CCOc1ccc(NC(=O)c2sc(N3CCOCC3)nc2-c2ccccc2)cc1	-6%	-12%
92	Cc1ccc(NC(=O)CN(C)C(=O)Cc2ccc(Cl)c(Cl)c2)cc1	-19%	-8%
93	CC(=O)NNC(=S)Nc1cc(S(=O)(=O)N(C)C)ccc1C	-17%	-13%
94	C/C(CC(=O)NC(C)c1ccccc1)=N\NC(N)=S (stereo not drawn)	-22%	-23%
95	Nc1ncnc2[nH]c(=O)[nH]c12	-11%	-16%
96	CCOC(=O)[C@@H]1[C@H]2COc3ccc(Br)cc3[C@@H]2N2C(=O)N(c3ccccc3)C(=O)[C@@]12C	-9%	-27%
97	Cc1ccccc1N1CCN(C2CCCN(C(=O)CCn3cnnn3)C2)CC1 (stereo not drawn)	-7%	i
98	O=C(c1ccco1)N1CCN(C(=O)c2cc3cc([N+](=O)[O-])ccc3oc2=O)CC1	-15%	-2%
99	Cc1ccc(-c2cc(C(=O)NCc3ccco3)c3ccccc3n2)s1	-2%	.
100	CNC(C)C1CC[C@H](N)[C@@H](OC2C(N)C[C@H](N)[C@@H](OC3OC[C@](C)(O)C(NC)[C@H]3O)C2O)O1 (stereo partly drawn)	-12%	-1%

By substructure, those above with two or more sulfur atoms (5)
no.	Compound	Vaccinia Venus	Vaccinia mCherry
59	Cc1nc2ccc3nc(NC(=O)c4ccc(S(=O)(=O)N5CCOCC5)cc4)sc3c2s1	-4%	-8%
77	CC[n+]1c(C)sc2c3ccsc3ccc21	0%	i
79	CN(CC(=O)N1CCN(c2cccc(Cl)c2)CC1)S(=O)(=O)c1cccs1	-14%	-6%
86	CC1(C(=O)NS(=O)(=O)c2ccc(Br)cc2)CCN1C(=O)CCc1cccs1 (stereo not drawn)	-8%	20%
93	CC(=O)NNC(=S)Nc1cc(S(=O)(=O)N(C)C)ccc1C	-17%	-13%

Source: PubChem BioAssay (National Center for Advancing Translational Sciences (NCATS))
